From PubChem
ugtP null kill: compounds lethal to S. aureus RN4220 ugtP deletion mutant; OD600 growth, 16 h; some inactives read as strong as hits; growth inhibition, % (test concentration not listed); 330,000 compounds, 0.54% hits; AID 1259309;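 active = z-score under -3 and OD600 up to 0.15 on both plates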;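 note: plate controls were untreated wells for no effect and antibiotic for full effect; wells of about 80 µL received 100 nL stock; the first replicate is given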
PrP 5UTR inh: inhibition of PrP 5' UTR reporter expression | cell-based PrP 5' UTR mRNA reporter, plate reader | inhibition, % (no concentration beside the values) | 340,000 compounds, 0.35% hits | AID 488862;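 active = every replicate at 50% or more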;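 note: 0 = median of the neutral control wells; tested in H4 reporter cells; numbers are from one replicate; inactives centre near -14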
BJeLR viability: BJeLR cell viability loss; BJeLR (HRASV12) viability, CellTiter-Glo ATP luminescence, 48 h; reference of the scale not given here; inhibition, % (test concentration not listed); 300,000 compounds, 0.17% hits;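 active = replicate mean above 50%; inconclusive = above 50% but judged a plate artefact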;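 note: 50 nL library stock added to about 25 µL; numbers are from one replicate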
Bead autofluor: compound fluorescence in toxin protease inhibitor counterscreen; fluorescence intensity (concentration not given with the values); compound autofluorescence counterscreen, microsphere flow cytometry; active compounds read high; 360,000 compounds, 3.1% hits;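 active = at least 3 SD above the mean of all compounds, about 16000 in these data; inconclusive = too few beads counted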;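 note: 100 nL of 1 mM stock went into each well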
Mtb hypoxia inh: inhibitors of hypoxia-regulated fluorescent reporter in Mycobacterium tuberculosis; fluorescence inhibition, % (test concentration not listed); 300,000 compounds, 0.1% hits; M. tuberculosis hypoxia-regulated fluorescent reporter, fluorescence;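 active = 35 to 45% if threefold the growth effect, above 45% if 1.5-fold the growth effect; inactive = the rest, general growth blockers included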;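 note: wells of about 50 µL received 100 nL stock; 0% = vehicle wells and 100% = reference inhibitor wells; whole bacteria with a GFP reporter of the hypoxia response; strong numbers were not always called active; many hits fall short of the cut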
RN4220 kill: kills Staphylococcus aureus RN4220; S. aureus RN4220 growth, OD600, 16 h; inhibition, % (concentration not given with the values); 330,000 compounds, 0.33% hits;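 active = z-score of -3 or lower and OD600 up to 0.18 on both plates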;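 note: plate controls were untreated cells for no effect and reference antibiotic for full effect; stock transfer was 100 nL into about 80 µL; one replicate is shown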
Mtb hypoxia inh growth: second read-out of Mtb hypoxia inh, no call of its own (marks repeat the call); growth inhibition, %; measured here: M. tuberculosis growth (absorbance);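 0% = vehicle and 100% = reference antibiotic; read after six days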
The depositor's hits bear a star; ? = inconclusive; . = no result given.

SMILES	ugtP null kill	PrP 5UTR inh	BJeLR viability	Bead autofluor	Mtb hypoxia inh	Mtb hypoxia inh growth	RN4220 kill
Nc1c(Cl)c(Cl)nc(C(=O)OCC(=O)N2CCCC2=O)c1Cl	10	-33	-2	5088	1	5	2.6
Cc1cc(Cl)ccc1OCC(=O)NC(=S)Nc1ccc(Cl)cn1	-1	-23	.	6310	0	10	6.5
O=C(N/N=C/c1ccc(-c2ccccc2)o1)c1ccccc1O	.	-28	6	4777	.	.	.
O=c1c2c(-c3cccs3)csc2[nH]c(=S)n1-c1ccccc1	21	-7	-12	2460	.	.	5.4
O=C(COc1ccccc1)NC1CCCc2ccccc21 (stereo not given)	8	5	-3	9945	.	.	5.9
Cc1ccc2occ(C(c3nnnn3Cc3ccccc3)N3CCOCC3)c(=O)c2c1 (stereo not given)	-8	-37	-5	?	6	4	-5.4
Cc1ccc(Cn2ccc(C3CC3)n2)cc1	5	-52	-11	4019	4	-2	9.9
COc1ccc(C(=S)N2CCCCCC2)cc1	-2	-16	-5	7938	6	2	3.2
CN(C)/C=C/C(=O)c1cc(N2CCOCC2)ccc1[N+](=O)[O-]	3	-9	-6	3807	-3	0	4.7
Cc1ccc(S(=O)(=O)N=c2scc(C)n2C)cc1	4	.	.	.	1	8	4.5
CCCCOc1nc2ccccc2nc1C(C#N)S(=O)(=O)c1ccccc1 (stereo not given)	0	-22	5	8970	18	7	10
CCCCn1c(N)c(N(CCOC)C(=O)CSc2ccccc2C)c(=O)[nH]c1=O	11	-19	-5	5206	10	2	8.7
COc1ccc(N=CC2=C(O)c3ccccc3C2=O)c(OC)c1	9	69*	4	4528	.	.	-6.3
CCOc1ccc(C(=O)OCC(=O)NC2CCCC2)cc1OCC	1	-13	-1	4295	15	7	0.2
COc1ccccc1NC(=O)CCN1C(=O)C2CC=CCC2C1=O (stereo not given)	2	-10	4	6444	0	-2	2.2
O=C(CSc1nnc2ccc(-c3ccccn3)nn12)NCC1CCCO1 (stereo not given)	4	-24	13	5700	3	1	1.5
CCCCCCCCCCCCN1[C@@H](CC(C)=O)c2cc(F)ccc2S1(=O)=O	.	-11	9	4137	.	.	.
COC(=O)Cc1[nH]nc2c1C(c1cc(OC)c(OC)c(OC)c1)C(C#N)=C(N)O2 (stereo not given)	2	-6	-5	3036	6	3	2.3
N#Cc1c2c(c(NCc3ccco3)n3c1nc1ccccc13)CCC2	-3	17	-1	4797	.	.	-3.0
Cc1ccc(OCC(=O)Nc2ccc(N3CCN(C(=O)c4ccco4)CC3)cc2)cc1C	8	-25	-7	3242	-5	6	11
CC(C)c1ccc(C=NNC(=O)c2nnn(-c3nonc3N)c2CSC2=NCCS2)cc1	2	.	.	.	17	1	5.2
CCC(OCC(O)CN1CCN(CCN2C(=O)c3cccc4cccc(c34)C2=O)CC1)c1ccccc1 (stereo not given)	-6	-31	13	1917	-15	10	-1.2
O=C(CNc1ccc(F)cc1Cl)Nc1cccc(S(=O)(=O)N2CCCCC2)c1	-15	-15	.	3757	11	4	-7.0
Cc1ncc(C[n+]2csc(C)c2C)c(N)n1	0	1	0	3277	3	1	-0.4
COc1ccccc1N(C)S(=O)(=O)c1ccc(C(=O)OCC(=O)N(C(C)C)C(C)C)cc1	5	-11	-1	3470	2	-4	-2.4
COC(=O)CC1c2ccccc2S(=O)(=O)N1C(C)C (stereo not given)	3	.	.	.	14	7	7.1
Cn1cnnc1SCC(=O)NNC(=O)COc1ccc(Br)cc1	8	-37	-9	4724	5	6	-1.9
O=C(NCc1ccccn1)C1CCN(Cc2cccc(OCc3ccccc3)c2)CC1	-4	-9	-3	3298	0	9	-1.0
CN(C(=O)CC1C(=O)NCCN1Cc1ccc(F)cc1)C1CCOCC1 (stereo not given)	2	-18	8	3528	7	-5	3.7
O=C(COc1ccccc1)NNC(=O)c1cc2ccccc2o1	-3	-17	3	11190	10	3	5.5
COC(=O)c1cc(OC)c(OC)cc1NC(=S)N1CCN(c2ccccc2)CC1	2	1	0	9923	4	9	2.8
Cc1cc2nc(C(F)(F)F)[nH]c(=O)n2n1	-4	-9	5	2786	22	8	-11
O=C(O)c1cccc(Cn2cc(Cl)cn2)c1	4	-5	-4	2461	.	.	-11
Cc1ccc(C(=O)COC(=O)CCc2nc3ccccc3[nH]c2=O)cc1C	-2	-16	3	15943	14	2	3.2
Cn1nc(-c2ccccc2)c(CO)c1Sc1ccccc1	4	-12	-4	3513	6	9	4.8
Cc1ccccc1NS(=O)(=O)c1ccc(C(=O)NCC(C)(C)N2CCOCC2)cc1	1	-4	2	5864	-5	3	-0.4
CN1/C(=C/C=C(/C#N)C(N)=O)C(C)(C)c2ccccc21	-1	-30	18	3333	.	.	0.5
CN(CC(=O)Nc1cccc(F)c1)C(=O)CSc1ccccc1	9	-5	2	6189	-3	2	-1.5
CCC(CC)CN1CCN=C1Nc1ccccc1	1	-9	.	3021	10	10	-6.1
Cc1ccc2cc(C(c3nnnn3Cc3ccccc3)N3CCc4ccccc43)c(=O)[nH]c2c1 (stereo not given)	-12	-5	-2	11940	5	5	6.0
CN(CCc1nnc(N)s1)[N+](=O)[O-]	4	-32	-2	4518	-3	-7	2.7
CC(=O)N1CCN(C(=O)CN2C(=O)NC(C)(c3ccc4ccccc4c3)C2=O)CC1 (stereo not given)	6	-21	.	3906	10	1	-2.1
Cc1ccc(NCC(=O)N/N=C\c2ccc([N+](=O)[O-])o2)cc1	.	-19	9	7395	.	.	.
C=CCNc1oc(-c2cccs2)nc1C#N	14	-17	-7	14544	2	-1	7.8
CC1=NN(/C(=N\c2nnc(C)s2)Nc2ccccc2)[C@H](c2cccc3ccccc23)S1	.	-3	-18	3842	.	.	.
COC(=O)c1ccc(/C=N/NC(=O)C2CC(=O)N(c3ccc(F)cc3)C2)cc1 (stereo not given)	.	-7	0	6481	.	.	.
Cc1cccc(NC(=O)Cc2nc(-c3c[nH]c(C(=O)N4CCCC4)c3)cs2)c1	-5	-28	.	5875	2	3	4.7
O=[N+]([O-])c1cccc(-c2ccn[nH]2)c1	3	-3	-5	5253	-3	1	1.0
COc1cc(NC(=O)CCc2nnc3ccc(N4CCCCC4)nn23)cc(OC)c1OC	-1	-21	-1	6212	-3	12	0.3
CCN1CCN(c2ccc(NC(=O)COc3ccc(Cl)cc3C)cc2)CC1	21	-26	.	3921	14	9	6.0
Cc1n[nH]c(C)c1CCC(=O)NN=Cc1c(C)[nH]c2ccccc12	7	.	.	.	-4	7	2.6
CCOc1ccc(NC(=O)COC(=O)CCC(=O)c2cccs2)cc1	11	2	.	3080	6	-3	7.0
CCOc1ccc(-n2c(N)c(C(=O)NCc3ccco3)c3nc4ccccc4nc32)cc1	-4	-6	-11	3680	-2	9	-1.9
CCOc1cc(/C=C/c2ccc3cccc([N+](=O)[O-])c3n2)ccc1OCC(=O)N(C)C	9	-9	-11	4476	-4	7	1.5
OCC#CC[N+]1(CC#Cc2ccccc2)CCCC1	3	0	3	3906	11	10	6.1
Cc1nn(Cc2ccccc2Cl)c2sc(C(=O)OC3CCCC3=O)cc12 (stereo not given)	-11	-13	-2	10394	0	1	-1.0
O=C(N1CCOCC1)N1CCN(S(=O)(=O)c2ccc(Cl)cc2)CC1	8	-53	3	3816	1	9	4.1
CN1C(C(=O)c2ccccc2)=C(N)c2ccccc2S1(=O)=O	-2	-26	0	5126	16	3	2.9
CC1(C)CC(=NOC(=O)c2ccccc2)CC(C)(C)N1	5	-23	0	19903*	6	3	2.2
COC(=O)CN1C(=O)C(O)(CC(=O)c2ccc(C)cc2)c2ccccc21 (stereo not given)	2	4	8	3427	.	.	5.1

(cont.)
SMILES	ugtP null kill	PrP 5UTR inh	BJeLR viability	Bead autofluor	Mtb hypoxia inh	Mtb hypoxia inh growth	RN4220 kill
Cc1cccc(C)c1NC(=O)CN1CCN(C(=O)c2ccc(OCc3cn4ccccc4n3)cc2)CC1	6	-15	.	3704	14	13	3.9
COc1ccc(C=NNC(=O)CCn2cnc(-c3ccccc3)c2-c2ccccc2)cc1	-4	.	.	.	13	1	6.0
CN(C)CC(=O)Nc1nc(-c2ccccc2)cs1	6	-24	-4	2438	.	.	0.1
O=C(NCc1ccc(Cl)cc1Cl)c1ccc2nc[nH]c2c1	24	-2	-2	2782	9	-8	2.0
N=C1C(c2nc3ccccc3[nH]2)=C(O)CN1C1CCCCC1	15	-53	-1	6021	12	-3	1.7
O=C(CCCOc1ccc(Cl)cc1Cl)Nc1ccccc1C(=O)O	23	-41	-2	4093	34*	52*	25
COc1ccccc1NC(=O)COc1ccc(C(=O)NC2CCCc3ccccc32)cc1OC (stereo not given)	0	-24	-2	2389	-1	1	7.6
CN(C)CCCOc1ccc2c(c1)Sc1ccccc1CC2=O	8	-35	-13	2028	18	10	-1.0
O=C(Nc1c2c(nn1-c1cccc(Cl)c1)CS(=O)(=O)C2)C1CC1	-3	-17	18	6005	7	6	-1.0
CCOC(=O)C1CCc2sc(N)c(C#N)c21 (stereo not given)	2	-28	-7	9604	4	-2	1.3
Fc1ccc(COc2ccc(Cl)cc2/C=N/Nc2nc(N3CCCC3)nc(N3CCCC3)n2)cc1	.	-13	5	11280	.	.	.
COC(=O)[C@H](Cc1ccccc1)NC(=O)NCc1ccccc1OC	0	.	0	10075	10	3	8.4
Cc1ccc(CSCc2ccc(C(=O)NC3CC3)o2)cc1	2	-6	3	5600	12	3	5.8
CCNc1ccc(C(=O)OCC(=O)c2cc(C)n(Cc3ccc4c(c3)OCO4)c2C)cc1[N+](=O)[O-]	-9	-3	-5	2381	.	.	1.6
CCC(=O)NN=C(C)CC(=O)Nc1cccc([N+](=O)[O-])c1	5	.	.	.	19	5	5.6

Part of the list above, as labelled records.
Molecule: CN(C)CCCOc1ccc2c(c1)Sc1ccccc1CC2=O
  ugtP null kill: 8
  PrP 5UTR inh: -35
  BJeLR viability: -13
  Bead autofluor: 2028
  Mtb hypoxia inh: 18
  Mtb hypoxia inh growth: 10
  RN4220 kill: -1.0

Molecule: COc1ccccc1NC(=O)COc1ccc(C(=O)NC2CCCc3ccccc32)cc1OC (stereo not given)
  ugtP null kill: 0
  PrP 5UTR inh: -24
  BJeLR viability: -2
  Bead autofluor: 2389
  Mtb hypoxia inh: -1
  Mtb hypoxia inh growth: 1
  RN4220 kill: 7.6

Molecule: O=C(Nc1c2c(nn1-c1cccc(Cl)c1)CS(=O)(=O)C2)C1CC1
  ugtP null kill: -3
  PrP 5UTR inh: -17
  BJeLR viability: 18
  Bead autofluor: 6005
  Mtb hypoxia inh: 7
  Mtb hypoxia inh growth: 6
  RN4220 kill: -1.0

Molecule: O=C(NCc1ccc(Cl)cc1Cl)c1ccc2nc[nH]c2c1
  ugtP null kill: 24
  PrP 5UTR inh: -2
  BJeLR viability: -2
  Bead autofluor: 2782
  Mtb hypoxia inh: 9
  Mtb hypoxia inh growth: -8
  RN4220 kill: 2.0

The list continues.
SMILES	ugtP null kill	PrP 5UTR inh	BJeLR viability	Bead autofluor	Mtb hypoxia inh	Mtb hypoxia inh growth	RN4220 kill
CCCCC1CCCO[C@@](C(=O)NCc2cc(C)n(C)n2)(C(F)(F)F)C1 (stereo not given in full)	1	.	.	.	10	3	3.1
COCCNC(=O)CN1C(=O)CSc2ccc(S(=O)(=O)N3CCOCC3)cc21	4	-10	0	5740	-2	1	0.9
Cc1c(C(=O)NC2CCCc3ccccc32)oc2ccc(S(=O)(=O)N3CCOCC3)cc12 (stereo not given)	-2	-19	-11	8404	8	7	1.0
CCOc1ccc(-c2c(C(=O)NN=Cc3cccnc3)nnn2-c2nonc2N)cc1	-8	.	.	.	-2	-4	3.2
Clc1ccc(OCCCN2CCc3ccccc3C2)c(Br)c1	-6	-22	-5	4214	-2	-2	-6.6
CCSc1nnc(NC(=O)c2cc3c(s2)CCCC3)s1	-9	.	12	9928	6	2	10
O=C(Nc1cc(Oc2ccccc2)cc([N+](=O)[O-])c1)C12CC3CC(C1)CC(n1cnc(Cl)n1)(C3)C2	-40	-20	-9	4562	7	8	-11
OCC1(CCc2ccccc2)CCN(Cc2cc(F)ccc2-n2cccn2)CC1	-5	-19	-3	4335	-7	8	-2.4
CC(C)(C)Cc1nnc(NC(=O)c2ccc([N+](=O)[O-])cc2)s1	.	-49	19	7387	.	.	.
Cc1ccc(CNC(=O)CCC(=O)n2ncc3cc(C)ccc32)cc1	0	-16	1	4390	3	-1	-9.3
O=C(O)c1[nH]c2ccccc2c1C(c1cc(Br)ccc1O)c1c(C(=O)O)[nH]c2ccccc12	4	-7	3	.	14	7	44
